# High-throughput results: PubChem, ICCB-Longwood Screening Facility, Harvard Medical School
# VACV E9 pol inh: inhibitors of vaccinia virus processive DNA synthesis (E9 polymerase) | AID 493162 | in vitro processive DNA synthesis, absorbance read-out; active compounds read low; some inactives read as strong as hits | normalized absorbance, % (test concentration not listed) | actives 0.94% (n = 46,000);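 active = replicate mean up to 90% and picked by the depositor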;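 note: 100% = median of the test wells of a plate; 100 nL library stock went into each well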
# Starred values were filed as active, the others as inactive; & = joins results of further samples.
SMILES,VACV E9 pol inh
CCc1nn2c(=O)cc(COc3ccc(/C=C4/C(=N)N5C=CSC5=NC4=O)cc3OC)nc2s1,101
O=C(NC(=S)Nc1cc(C(F)(F)F)cc(C(F)(F)F)c1)Oc1ccccc1,93
NC(C(=O)O)c1ccsc1 (stereo not drawn),96
O=c1nc(Nc2ccc(OC(F)(F)F)cc2)oc2ccccc12,108
CCOC(=O)C1CCN(C(=O)CN2C(=O)c3ccccc3C2=O)CC1,102
CC(C)CNc1ncnc2c1c(-c1ccccc1)cn2-c1ccccc1,100
CCOc1ccc2c(c1)sc(=N)n2Cc1ccc(Cl)cc1,108
Cc1c(C)c(NC(=O)/C=C/C(=O)O)c(C)c(C)c1NC(=O)/C=C/C(=O)O,98
N#C/C=C/c1ccc(C(=O)O)cc1,98
COc1ccc(/C=C2/SC(=S)N(CCC(=O)Nc3nccs3)C2=O)cc1,101
CCN(CC)c1c(S(=O)(=O)c2ccc(C)cc2)cnc2ccccc12,100
CC(C)(C)c1csc(-c2sccc2COc2ccc(Cl)cc2)n1,101
CN(C)c1ccc(C2(O)C(=O)c3ccccc3C2=O)cc1,107
CC(=O)NC1CCCCc2sccc21 (stereo not drawn),101
Cc1ccn2cc(CSc3ccccc3N)nc2c1,97
CCOC(=O)C1CCCN(CC(O)COc2cccc(C)c2)C1 (stereo not drawn),92
Cc1ccc(/C(C#N)=C/c2ccc(N(C)C)cc2)cc1,83
CC(=O)Nc1ccc(NC(=O)C(C)OC(=O)C2(c3ccc(F)cc3)CCCC2)cc1 (stereo not drawn),95
CCOC(=O)c1sc(N2C(=O)C(=O)/C(=C(/O)c3ccc(OC)c(C)c3)C2c2ccccc2)nc1C (stereo not drawn),69*
c1ccc(Cn2c[n+](Cc3ccccc3)cn2)cc1,110
COc1ccccc1Nc1nc(N)nc(CN2CCC(C)CC2)n1,102
Cc1ccc(C2C3=C(CC(C)(C)CC3=O)OC3=C2C(=O)CC(C)(C)C3)cc1,103
O=c1cc(CSc2ccc(Cl)cc2)nc(N2CCN(Cc3ccc4c(c3)OCO4)CC2)[nH]1,100
CCOC(=O)C1=C(C)Nc2ncnn2C1c1cccnc1 (stereo not drawn),96
CCc1ccccc1N(CC)C(=O)c1cc2c(s1)-c1c(C)cccc1OC2,103
Cc1ccc(SC(=O)c2sc(-c3ccccc3)nc2C)cc1,94
O=c1[nH]nc(SCc2ccc(Cl)cc2Cl)c(=O)[nH]1,83
COC(=O)C1=C(N)C(C(=O)OC)=c2s/c(=C/c3ccccc3)c(=O)n2C1c1ccccc1 (stereo not drawn),95
CCCc1cc2c(=O)c(-c3ccc4c(c3)OCCO4)c(C(F)(F)F)oc2c(C=[N+](C)C)c1O,101
CC(C)OC(=O)C(C)N=Cc1ccccc1 (stereo not drawn),100
Cc1nnc(NC(=O)CC23CC4CC(CC(C4)C2)C3)s1,99
CCOC(=O)N1CCC(NS(=O)(=O)c2ccc(C)c(Cl)c2)CC1,102
O=C(COc1ccccc1C(=O)O)NCCc1ccccc1,103
O=C(c1ccccn1)c1ccc2ccccc2n1,104
CC(C)(C)c1ccc(OCc2nnc(SCC(N)=O)n2-c2ccccc2)cc1,107
CCN1C(=O)c2ccccc2S(=O)(=O)c2ccc(C(=O)N3CCc4ccccc43)cc21,98
COc1ccc(C(=O)c2nccc3ccccc23)cc1,101
Cc1oc2c(c1C(N)=O)CCCC2,91
CCc1cc(-c2n[nH]c(CCC(=O)O)c2-c2nc3ccccc3n2C)c(O)cc1O,99
CC1=C(c2ccc(C)cc2)[N+](=O)C(C)(C)N1[O-],100
N#Cc1cccnc1N1CCN(C(=O)Nc2cccc3ccccc23)CC1,103
Cc1ccc(C)c(NC(=O)C(Sc2cccc[n+]2[O-])c2ccccc2)c1 (stereo not drawn),101
CC(Nc1cc(C)ccn1)=C(C#N)C#N,63*
C=CCOc1nc(NCC)nc(N(C)C)n1,100
O=C1/C(=C/c2ccccc2O)N=C2CCCCCN12,100
Oc1ccc(C=NCC2OCCc3ccccc32)cc1 (stereo not drawn),101
O=C(c1ccccc1)N1CCCn2c1nc1ccccc12,103
O=C(Nc1ccc(Cl)cc1)C1CC(=O)N(CCc2ccc(Cl)cc2)C1 (stereo not drawn),91
COc1ccccc1C(=O)NC(C)C(c1cccs1)N1CCN(C)CC1 (stereo not drawn),96
O=C(NC(=S)Nc1ccc(-c2nc3ccccc3o2)cc1)c1ccc(F)cc1,100
CCOc1ccc(-n2c(-c3ccc(OC)cc3)c[n+]3c2CCCCC3)cc1,100
COc1ccc(CCCc2n[nH]c(=S)o2)cc1,100
O=C(O)c1ccc(CNCCc2ccccc2)s1,96
CC(C)c1ccc(NC(=O)CSc2ncn[nH]2)cc1,100
COc1ccc(-c2cc(-c3ccccc3)n[nH]2)cc1,104
CC1=NS(=O)(=O)c2cc(Cl)ccc2N1,100
NCCCc1nc2cc3sc(CCCN)nc3cc2s1,60*
CCOc1ccc(C(=O)c2nc3ccccc3s2)cc1,94
CSc1nsc(SC)c1C(=O)NC(=O)Nc1ccc(Cl)cc1,100
CC(=O)N(CCc1c(C)[nH]c2ccccc12)C(C(=O)Nc1c(C)cccc1C)c1ccc(Cl)cc1 (stereo not drawn),101

# Pulled one by one from the list above:
SMILES,VACV E9 pol inh
CC(=O)N(CCc1c(C)[nH]c2ccccc12)C(C(=O)Nc1c(C)cccc1C)c1ccc(Cl)cc1 (stereo not drawn),101
CSc1nsc(SC)c1C(=O)NC(=O)Nc1ccc(Cl)cc1,100
Cc1ccc(C)c(NC(=O)C(Sc2cccc[n+]2[O-])c2ccccc2)c1 (stereo not drawn),101
Oc1ccc(C=NCC2OCCc3ccccc32)cc1 (stereo not drawn),101
CC(C)c1ccc(NC(=O)CSc2ncn[nH]2)cc1,100
CCOc1ccc(C(=O)c2nc3ccccc3s2)cc1,94
COc1ccccc1C(=O)NC(C)C(c1cccs1)N1CCN(C)CC1 (stereo not drawn),96
O=C(Nc1ccc(Cl)cc1)C1CC(=O)N(CCc2ccc(Cl)cc2)C1 (stereo not drawn),91
O=C(NC(=S)Nc1ccc(-c2nc3ccccc3o2)cc1)c1ccc(F)cc1,100
COc1ccc(CCCc2n[nH]c(=S)o2)cc1,100

# Grouped by structure, the compounds so far with a CF3 group.
SMILES,VACV E9 pol inh
O=C(NC(=S)Nc1cc(C(F)(F)F)cc(C(F)(F)F)c1)Oc1ccccc1,93
O=c1nc(Nc2ccc(OC(F)(F)F)cc2)oc2ccccc12,108
CCCc1cc2c(=O)c(-c3ccc4c(c3)OCCO4)c(C(F)(F)F)oc2c(C=[N+](C)C)c1O,101

# The list continues.
SMILES,VACV E9 pol inh
S=C1NC2(CCCC2)N=C1c1ccccc1,105
COc1ccc(-c2cc(C(=O)OCC(=O)c3ccccc3)c3cccc(Cl)c3n2)cc1,100
CC(C)(C)n1cn[nH]c1=S,101
CC(=O)Nc1ccc(S(=O)(=O)NCC2CCC(C(=O)O)CC2)cc1 (stereo not drawn),92
CCn1c(=O)c2sccc2n2c(CCCC(=O)NCCc3ccccc3)nnc12,79
Cc1cc(N2CCN(C)CC2)ncn1,100
Cc1ccccc1/C=N/N1C(=O)c2ccc3c4c(ccc(c24)C1=O)CC3,100
CN1CCc2c(c(N3CCCCC3)nc3n[nH]c(N)c23)C1,100
O=C(/C=C/c1ccco1)N1CCN(C(c2ccccc2)c2ccccc2)CC1,100
O=C(Nc1nc(-c2ccccc2)cs1)C12CC3CC(CC(C3)C1)C2,94
CCCC(CCC)c1nc2ccncc2[nH]1,100
Cc1ccc(Cl)cc1NC(=O)COC(=O)c1ccc(Br)o1,93
Cc1cc(C)c2c(N)c(C(=O)NC(C)c3ccccc3)sc2n1 (stereo not drawn),100
O=c1ccc(-c2cccs2)n[nH]1,109
CC(C)C12CN3CCN(CC(C3)/C1=N/N)C2,100
O=C(CC12CC3CC(CC(C3)C1)C2)NC1CCN(Cc2ccccc2)CC1,69
Nc1ncn([C@@H]2O[C@H](CO)[C@@H](O)[C@H]2O)c(=O)n1,102
C=CCc1ccccc1OCC(O)CN1CCN(c2ccccc2OC)CC1 (stereo not drawn),100
O=C(Nc1ccc(-c2cn3c(n2)SCC3)cc1)c1ccco1,102
CCN1C(=O)c2cccc3c(S(=O)(=O)NC4CC(C)(C)NC(C)(C)C4)ccc1c23,92
O=C(Cc1cccs1)NC(c1ccccc1)c1ccccc1,97
CCOC(=O)c1cn2nc(-c3ccc(OC)cc3)cc2nc1C1CCN(C(=O)OC(C)(C)C)CC1,85
CC(CCc1ccccc1)NC(=O)CCc1cn(Cc2ccc(F)cc2)c2ccccc12 (stereo not drawn),101
O=C(O)C1CCN(C(=O)c2ccccc2)CC1,101
O=S(=O)(Nc1nc2ccccc2nc1NCCC1=CCCCC1)c1ccccc1,100
COC(=O)c1ccccc1N=Cc1sc(=S)[nH]c1O,99
CN(C(=O)COc1ccc2ccc(=O)oc2c1)c1ccccc1,98
Fc1ccc(CSc2c[nH]c3ccccc23)cc1,92
CCn1nc(C)cc1C(=O)NN,100
O=C(NCCc1ccccc1)c1cc(-c2ccccc2)nc2ccccc12,98
O=C(Nc1ccc(OC(F)(F)F)cc1)OCCc1csc2ccccc12,102
c1coc(-c2ccnc3nc(-n4cccc4)nn23)c1,86
O=c1c(O)c(-c2ccc(F)c(Oc3ccccc3)c2)oc2ccccc12,91
CCOC(=O)N1CCN(C(=O)c2cccs2)CC1,100
O=C(CSc1nc2c(c(=O)[nH]1)CSC2)c1ccc(Cl)cc1,90
O=C1c2ccc(-c3ncc(-c4ccccc4)o3)cc2C(=O)N1c1ncn[nH]1,102
CN(C)c1cccc(C(=O)NO)c1,99
CC(C)(C)c1ccc2cc(C#N)c(C#N)cc2c1,107
O=C(CS(=O)(=O)Nc1ccc(F)cc1Cl)Nc1ccc(F)cc1Cl,101
CCOC(=O)CCc1c(C)nc2ccc(C)cn2c1=O,98
CCC(=O)c1cc2c(cc1N)OCCO2,97
O=C(COC(=O)c1c(F)cccc1Cl)NCC1CCCCC1,107
CCOc1ccc(-c2csc(/C(C#N)=C/Nc3ccccc3OC)n2)cc1,99
O=C(Nc1ccc2c(c1)OCCO2)N1CCC(CN2CCc3ccccc3C2)CC1,103
CC1CCCCC1NC(=O)Cn1nc(-c2ccc(Cl)cc2)ccc1=O (stereo not drawn),103
Cc1cc(C(=O)NCc2ccc(F)cc2)n(-c2ccccc2)n1,103
CN1/C(=C\C(=O)c2cccc(Cl)c2)C(C)(C)c2ccccc21,91
Cc1ccc(S(=O)(=O)CCSCc2csc3ccccc23)cc1,104
O=C(NCCc1nc2ccccc2[nH]1)c1ccc(Cl)c(Cl)c1,101
CCCC(C)(COC(N)=O)COC(=O)NC(C)C (stereo not drawn),100
CC(C)(C)c1ccc(C(=O)CC(NCc2ccccc2)C(=O)O)cc1 (stereo not drawn),100
COc1ccc2[nH]cc(/C=C(/C#N)S(=O)(=O)c3ccccc3)c2c1,88
CCCc1cc(=O)n2c3c(sc2n1)C(=O)N(Cc1ccccc1)C3=O,93
Cn1cccc1/C=C1\C(=O)NC(=S)N(c2ccccc2)C1=O,99
CCCCc1ccc(N/C=c2/c(C)c(C#N)c3nc4ccccc4n3c2=O)cc1,100
CC(C)c1nnc(NC(=O)C(C)(C)C)s1,101
COCCN1C(=O)c2ccccc2C(C(=O)NCCN2CCOCC2)C1c1cn(C)c2ccccc12 (stereo not drawn),105
O=C(CSc1nnnn1-c1ccccc1)Nc1ccc(-c2ccccc2)cc1,103
CCOc1cc(/C=C2/C(=O)N(c3ccccc3)C(=S)N(c3ccc(C)c(C)c3)C2=O)ccc1O,100
COc1c(C)c2c(c(O)c1C/C=C(\C)CCC(=O)O)C(=O)OC2,103

# Next structures follow.
SMILES,VACV E9 pol inh
Cc1ccc(OCCCC(=O)Nc2nccs2)cc1,105
O=c1c2c(nc3cc(-c4ccccc4)[nH]n13)CCC2,103
O=C(c1ccc(Br)cc1)c1cc2c(cc1Br)OCCCO2,103
Cc1ccccc1S(=O)(=O)Cc1ccc(C(=O)NC2CCCC2)o1,101
CC(C)(C)NC(=O)C12CC3CC(CC(C3)C1)C2,97
NC(=O)c1ccsc1NC(=O)c1ccc2c(c1)CCCC2,91
Cc1ccc2oc(=O)c3cc(C(=O)NCCCN4CCCCCC4)sc3c2c1,68*
CC(C)(C)C(=O)Cn1c(=O)n(CCCC(=O)NCc2ccco2)c(=O)c2sccc21,98
O=C(O)CCC1CCCCCCCCCCC1,74*
CCSc1nc2c(c(=O)n1-c1ccccc1)SCC2,102
Cc1ccc(C23CC4CC(CC(C(=O)NCC(=O)O)(C4)C2)C3)cc1,95
CC(C)CCN1C(=O)C(O)(CC(=O)c2cccc(C(F)(F)F)c2)c2ccccc21 (stereo not drawn),103
NC1c2c(ccc3ccccc23)OCC1CO (stereo not drawn),88
O=C(O)c1cc(-c2cccnc2)nn1-c1cccc(C(F)(F)F)c1,98
Cc1ccc(S(=O)(=O)/C=C/C#N)cc1,99&98
COc1ccc(C(=O)NC(c2ccccc2)c2ccccc2)cc1,100
CCOC(=O)CSC(c1ccccc1)c1c(C(=O)OC)[nH]c2ccccc12 (stereo not drawn),97
COc1ccccc1Oc1ccc(S(N)(=O)=O)cc1,83
CN(C)CC(O)COc1cccc2ccccc12 (stereo not drawn),96
Cc1onc(-c2ccccc2)c1CNC(=O)C1CCC1,102
CC(C)N(CCCn1cccc1)C(=S)Nc1cccc(C(F)(F)F)c1,99
CC1CCCC(C)N1C(=O)COC(=O)C1CC1 (stereo not drawn),106
CCSc1n[nH]c2nc3ccccc3n12,97
CN(C)c1cc(C(F)(F)F)nc(-c2ccccn2)n1,124
CCNS(=O)(=O)c1ccc2c(c1)C(=O)c1cc(S(=O)(=O)NCC)ccc1-2,100
CCOC(=O)CC1Sc2ccccc2N=C1SCCS(=O)(=O)c1ccc(Cl)cc1 (stereo not drawn),98
CC1CN(CC(O)COc2ccc(C3CCCCC3)cc2)CC(C)O1 (stereo not drawn),98
Nc1scc[n+]1CC(=O)Nc1ccccc1,100

# Of the compounds above, these contain bromine:
SMILES,VACV E9 pol inh
Cc1ccc(Cl)cc1NC(=O)COC(=O)c1ccc(Br)o1,93
O=C(c1ccc(Br)cc1)c1cc2c(cc1Br)OCCCO2,103

# The list is partial; rates above refer to the full screens.
